# High-throughput results from PubChem.
# FGF22 binding: binders of human FGF22 protein, primary screen, FGF22 synaptogenesis inhibitor project, biophysical, thermal shift, single point; 1.5% of 340,000 active; recombinant FGF22 thermal shift, SYPRO orange fluorescence; percent of sucrose octasulfate shift, DMSO zero; Fibroblast growth factor 22 (Homo sapiens), Q9HCT0; calls only at 9.99 µM; AID 651658, 2012;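 active means melting point raised past a set limit in the mean and every replicate; three in four hits are not shown here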
# Target sequence (Q9HCT0 whole entry, looked up): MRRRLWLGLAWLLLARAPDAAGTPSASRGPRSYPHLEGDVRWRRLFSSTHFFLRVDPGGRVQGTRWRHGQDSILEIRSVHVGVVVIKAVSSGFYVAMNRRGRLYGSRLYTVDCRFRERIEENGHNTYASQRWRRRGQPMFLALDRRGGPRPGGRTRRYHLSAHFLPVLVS
# Ecoli rRNA inh: reduced GFP signal of wild-type E. coli, primary screen, bacterial rRNA inhibitor project, GFP/RFP fluorescence, OD600, single point; E. coli WT GFP vs humanized-ribosome RFP mutants, 24 h; active compounds read low; DMSO median 0, no signal -100; GFP signal change (wild-type ribosome), % (concentration not given with the values); 1.6% of 350,000 active;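 active means significant combined selectivity score with lowered wild-type GFP, culture density cut under 30%, mutant RFP and density less affected; inactive means any of these conditions unmet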; further: one replicate is shown; some compounds called inactive have numbers as strong as hits
# AF4-AF9 inh: inhibitors of AF4 peptide binding to AF9, primary screen, biochemical, AlphaScreen, biotin-AF4 peptide, FLAG-AF9, single point; Protein AF-9 (Homo sapiens), P42568; inhibition, % at 10 µM; 0.47% of 350,000 active;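 active means every replicate reaching a set inhibition limit, whatever the replicate mean, cut at about 25% in these data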;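 further: 0% = plate neutral control median and 100% = total signal loss; the record names both 10 and 1 µM as test concentration; the first replicate is given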
# Target sequence (P42568 whole entry, looked up): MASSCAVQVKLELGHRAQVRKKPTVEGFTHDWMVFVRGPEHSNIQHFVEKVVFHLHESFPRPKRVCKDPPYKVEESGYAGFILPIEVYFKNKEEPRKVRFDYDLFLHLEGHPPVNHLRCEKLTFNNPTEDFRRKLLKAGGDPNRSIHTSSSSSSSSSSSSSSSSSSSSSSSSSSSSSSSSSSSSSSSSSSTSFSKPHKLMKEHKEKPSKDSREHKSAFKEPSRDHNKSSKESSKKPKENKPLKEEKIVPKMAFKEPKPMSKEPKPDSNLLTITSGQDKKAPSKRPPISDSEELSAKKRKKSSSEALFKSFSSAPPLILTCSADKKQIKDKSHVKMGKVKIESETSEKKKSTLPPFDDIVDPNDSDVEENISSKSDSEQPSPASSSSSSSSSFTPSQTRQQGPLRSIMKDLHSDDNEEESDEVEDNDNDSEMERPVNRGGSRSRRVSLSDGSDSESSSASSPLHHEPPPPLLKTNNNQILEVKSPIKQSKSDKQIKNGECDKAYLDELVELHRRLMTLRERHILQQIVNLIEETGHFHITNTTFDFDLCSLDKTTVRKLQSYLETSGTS
# Ecoli rRNA inh OD600: further read-out of Ecoli rRNA inh, marked with its call; OD600 change, %; measured here: OD600 growth;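 optical density of the mix in the first replicate; 0 = DMSO median and -100 = no signal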
# Ecoli rRNA inh RFP: also measured in Ecoli rRNA inh; calls as there; RFP signal change, %; measured here: RFP humanized mutant strains;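 first replicate; 0 = DMSO median and -100 = no signal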
# * marks the source's active call; other numbers are inactive results; i = inactive; & = joins results of further samples. A portion of the library, so the mix of outcomes need not match the whole.
# The first 3 entries, to show the layout:
# Keys – A = FGF22 binding; B = Ecoli rRNA inh; C = Ecoli rRNA inh OD600; D = Ecoli rRNA inh RFP; E = AF4-AF9 inh
CC(C)CC#Cc1ccc2c(c1)O[C@H](CN(C)Cc1ccc(F)cc1)[C@H](C)CN([C@H](C)CO)S2(=O)=O
  A = i; B = 0; C = -4; D = -1.2; E = 0.7

O=C1NC[C@H](Cc2ccc(O)cc2)N(C[C@H]2CCCN2C[C@H](Cc2ccc(O)cc2)N2C[C@H](Cc3ccc(O)cc3)N(CCc3ccccc3)C(=O)C2=O)C1=O
  A = i; B = -8; C = -5; D = 10; E = 3.4

CCOC(=O)C1(C)CCN1C(=O)COc1ccc(C(C)(C)C)cc1 (centres undefined)
  A = i; B = 4; C = -30; D = -2.6; E = -3.4

# The listing (from the top)
# Keys – A = FGF22 binding; B = Ecoli rRNA inh; C = Ecoli rRNA inh OD600; D = Ecoli rRNA inh RFP; E = AF4-AF9 inh
CC(C)CC#Cc1ccc2c(c1)O[C@H](CN(C)Cc1ccc(F)cc1)[C@H](C)CN([C@H](C)CO)S2(=O)=O
  A = i; B = 0; C = -4; D = -1.2; E = 0.7

O=C1NC[C@H](Cc2ccc(O)cc2)N(C[C@H]2CCCN2C[C@H](Cc2ccc(O)cc2)N2C[C@H](Cc3ccc(O)cc3)N(CCc3ccccc3)C(=O)C2=O)C1=O
  A = i; B = -8; C = -5; D = 10; E = 3.4

CCOC(=O)C1(C)CCN1C(=O)COc1ccc(C(C)(C)C)cc1 (centres undefined)
  A = i; B = 4; C = -30; D = -2.6; E = -3.4

CCCCN1CC(COCc2ccccc2)Oc2cccc(Sc3ccc(OC)c(OC)c3)c2S1(=O)=O (centres undefined)
  A = i; B = 13; C = 17; D = 1.6; E = -2.2

CCC(=O)Nc1ccc2c(c1)C(=O)N(C)C[C@@H](OC)[C@H](C)CN(CCc1ccccc1)[C@@H](C)CO2
  A = i; B = -5; C = -11; D = -1.1; E = 1.2

COc1ccc(CN(C)C[C@H]2Oc3ccc(NS(=O)(=O)c4cccs4)cc3C(=O)N([C@@H](C)CO)C[C@@H]2C)cc1
  A = i; B = -1; C = 3; D = -1.5; E = -24

Cn1cnc(S(=O)(=O)N2C[C@@H](O)COC[C@@H]3O[C@H](CC(=O)NC4CCCC4)CC[C@H]32)c1
  A = i; B = 3; C = 12; D = -3.8; E = -0.8

COc1ccc(CN(C)C[C@H]2OCCCC[C@@H](C)Oc3ccc(NC(=O)Nc4ccc(F)cc4)cc3C(=O)N([C@@H](C)CO)C[C@H]2C)cc1
  A = i; B = -30; C = -36; D = 14; E = 21

C[C@@H]1CN([C@@H](C)CO)C(=O)c2cccc(NS(=O)(=O)c3ccccc3)c2O[C@H]1CN(C)S(=O)(=O)c1cccs1
  A = i; B = -2; C = -2; D = -2.3; E = -2.0

C[C@H](CO)N1C[C@H](C)[C@H](CN(C)S(=O)(=O)c2ccc(F)cc2)Oc2c(NC(=O)Nc3ccccc3)cccc2C1=O
  A = i; B = -5; C = -10; D = 2.4; E = 1.8

C[C@@H](O)C#Cc1ccc([C@H]2[C@H](CO)N3CCCCN(C(=O)c4ccc(F)cc4)C[C@@H]23)cc1
  A = i; B = 2; C = 5; D = -0.1; E = -4.6

C(=C\c1ccccc1)/CN1CCN(C(c2cccs2)c2nnnn2-c2ccc3c(c2)OCCO3)CC1 (centres undefined)
  A = i; B = -7; C = -28; D = 13; E = 1.5

COc1ccc(S(=O)(=O)N2CC3(CN(C(=O)CN(C)C)[C@H](CO)c4c3c3ccc(OC)cc3n4C)C2)cc1
  A = i; B = -6; C = -12; D = 2.7; E = 19

C[C@@H]1CCCCO[C@H](CN(C)S(=O)(=O)c2cn(C)cn2)[C@@H](C)CN([C@H](C)CO)C(=O)c2cc(NS(=O)(=O)c3cccs3)ccc2O1
  A = i; B = 0; C = 0; D = -0.5; E = -1.5

Cc1ccc(-c2ccccc2[C@H]2[C@@H](CO)N(C(=O)Cc3cccnc3)[C@H]2C#N)cc1
  A = i; B = -4; C = -3; D = -0.1; E = 1.1

Cc1ccc(S(=O)(=O)NCC[C@H]2CC[C@H](NS(=O)(=O)c3ccccc3Cl)[C@@H](CO)O2)cc1
  A = i; B = -7; C = -11; D = 4.8; E = -1.0

CC(=O)Nc1ccc(NC(=O)c2cc(-c3cc(F)ccc3OCC3CCCO3)n[nH]2)cc1 (centres undefined)
  A = i; B = 7; C = 26; D = -1.1; E = -3.6

CCCNC(=O)N1[C@H](CNC(C)=O)[C@@H](c2ccc(-c3ccccc3)cc2)[C@@H]1CO
  A = i; B = -5; C = -3; D = 5.0; E = 0.6

COc1ccc(C(C)(NC(C)=O)c2nc(-c3cccc(C#N)c3)cs2)cc1 (centres undefined)
  A = i; B = -3; C = -9; D = 1.8; E = 0.8

COCC#Cc1ccc([C@H]2[C@H]3CN(C(=O)CN(C)C)CCCCN3[C@H]2CO)cc1
  A = i; B = 7; C = 0; D = -0.3; E = -0.4

COc1ccc(CNC(=O)C[C@H]2CC[C@@H]3[C@@H](COc4ccc(NC(=O)C5CC5)cc4C(=O)N3C)O2)cc1
  A = i; B = 0; C = -19; D = -1.9; E = 0.1

CC1(C(=O)NS(=O)(=O)c2cccs2)CCN1C(=O)CC1CCCC1 (centres undefined)
  A = i; B = 31; C = 22; D = 4.7; E = 4.4

COc1ccc2c3c(n(C)c2c1)[C@H](CO)N(Cc1ccccc1Cl)CC31CCN(C(=O)CC2CC2)CC1
  A = i; B = 3; C = -8; D = -2.2; E = -1.1

CC(C)NC(=O)Nc1ccc2c(c1)C(=O)N([C@@H](C)CO)C[C@H](C)[C@H](CN(C)S(=O)(=O)c1ccccc1)OCCCC[C@H](C)O2
  A = i; B = -1&-5; C = 2&-10; D = 2.2&-0.2; E = -0.4&1.0

C[C@@H]1CN([C@H](C)CO)C(=O)c2cc(-c3ccccc3)cnc2O[C@@H]1CN(C)C(=O)c1ccccn1
  A = i; B = 8; C = 13; D = 0.6; E = -3.4

O=C(Cc1ccccn1)N[C@H]1CC[C@H](CCNC(=O)c2cc(Cl)cc(Cl)c2)O[C@H]1CO
  A = i; B = 0; C = -9; D = 1.5; E = -1.2

CN(C)C(=O)c1cccc(-c2ccc([C@@H]3[C@@H](CO)N4CCCCN(Cc5cccnc5)C[C@@H]34)cc2)c1
  A = i; B = 5; C = -2; D = 0.7; E = -2.2

Nc1cc(=O)c2[nH]cnc2[nH]1
  A = i; B = 3; C = 16; D = -2.4; E = -3.4

C[C@@H]1CN([C@H](C)CO)C(=O)c2cccc(NC(=O)Nc3cccc4ccccc34)c2O[C@@H]1CN(C)S(C)(=O)=O
  A = i; B = 3; C = 2; D = -1.4; E = 1.0

C[C@@H]1CN([C@@H](C)CO)C(=O)c2cc(C#CCN(C)C)cnc2O[C@H]1CN(C)C(=O)c1ccc2c(c1)OCO2
  A = i; B = 4; C = 1; D = -3.3; E = -0.3

O=C(C1CCOCC1)N1C[C@H]2[C@@H](c3ccccc31)[C@@H](CO)N2C(=O)Nc1ccccc1F
  A = i; B = 2; C = -2; D = -0.4; E = 0.4

COC(=O)[C@]12CCCCC=C1N(Cc1cccc3ccccc13)C(=O)[C@H](CC(=O)NCc1ccc(OC)c(OC)c1)C2
  A = i; B = 6; C = 8; D = 2.9; E = -0.4

COc1ccc(CN(C)C[C@@H]2OCCCC[C@H](C)Oc3ccc(NC(=O)CCC(F)(F)F)cc3C(=O)N([C@H](C)CO)C[C@H]2C)cc1
  A = i; B = 1; C = -10; D = -0.7; E = -1.3

COc1ccc2c3c(n(C)c2c1)[C@H](CO)N(C(=O)c1cccnc1)CC31CCN(C(=O)c2cccnc2)CC1
  A = i; B = 2; C = 11; D = -3.5; E = 0.7

Cn1cnc(S(=O)(=O)N2C[C@@H](O)COC[C@H]3O[C@@H](CC(=O)NCc4cccc(F)c4)CC[C@@H]32)c1
  A = i; B = 0; C = 8; D = 2.0; E = -1.3

COc1ccc(-c2cnc3c(c2)C(=O)N([C@@H](C)CO)C[C@@H](C)[C@@H](CN(C)C(=O)CN(C)C)O3)cc1
  A = i; B = 4; C = 0; D = -2.4; E = -2.0

O=C(C1CCC1)N1[C@@H](CO)[C@@H](c2ccccc2)C12CN(Cc1ccccc1)C2
  A = i; B = -1; C = -6; D = 0.7; E = 0.1

CCc1csc(N2[C@@H](C#N)[C@@H](c3ccc(C#Cc4ccc(F)cc4)cc3)[C@@H]2CO)n1
  A = i; B = 0; C = -35; D = 14; E = -0.7

C[C@@H]1CN([C@H](C)CO)C(=O)c2cccc(NC(=O)Nc3ccc(F)cc3)c2O[C@@H]1CN(C)C(=O)Nc1ccccc1
  A = i; B = -4; C = -2; D = -1.4; E = 2.1

NC(Cc1ccc(Cl)cc1)c1csc(Nc2cc(NCCCO)ncn2)n1 (centres undefined)
  A = i; B = -9; C = 3; D = 2.9; E = 13

C[C@@H]1CN([C@H](C)CO)S(=O)(=O)c2ccc(C#CC(C)(C)O)cc2O[C@H]1CN(C)Cc1ccc(F)cc1
  A = i; B = -48; C = -72; D = -9.3; E = 0.6

CCC(=O)N[C@H]1C=C[C@H](CC(=O)NCc2cc(F)cc(F)c2)O[C@@H]1CO
  A = i; B = 1; C = -3; D = -0.6; E = -1.1

CO[C@@H]1CN(C)C(=O)c2cc(NC(=O)Nc3ccc(F)cc3)ccc2OC[C@H](C)NC[C@H]1C
  A = i; B = -3; C = -6; D = 0.8; E = -8.2

CNC[C@H]1Oc2ccc(N)cc2C(=O)N([C@@H](C)CO)C[C@@H]1C
  A = i; B = 5; C = 6; D = 0.5; E = -17

Cc1noc(C)c1S(=O)(=O)N(C)C[C@@H]1OCCCC[C@H](C)Oc2ccc(NC(=O)Nc3cccc4ccccc34)cc2C(=O)N([C@H](C)CO)C[C@H]1C
  A = i; B = 2; C = 6; D = 0.6; E = 0.0

C[C@@H]1CN([C@@H](C)CO)S(=O)(=O)c2ccc(-c3cncnc3)cc2O[C@H]1CN(C)C
  A = i; B = -2; C = 2; D = -0.1; E = -4.1

CC(=O)N[C@H]1CC[C@@H](CCNC(=O)C2CC2)O[C@@H]1CO
  A = i; B = 4; C = -2; D = 0.8; E = -2.3

C[C@@H]1CN([C@H](C)CO)C(=O)c2cc(NC(=O)C3CCCCC3)ccc2O[C@@H](C)CCCCO[C@@H]1CN(C)Cc1ccc(C(=O)O)cc1
  A = i; B = 3; C = 5; D = -1.4; E = 2.6

CC1(Cc2ccc(OC(F)(F)F)cc2)C(=O)Nc2ccc(OC(F)(F)F)cc21 (centres undefined)
  A = i; B = -13; C = -31; D = 0.9; E = -5.6

O=C(N[C@@H]1CC[C@@H](CCNC(=O)C2CCOCC2)O[C@H]1CO)c1ccncc1
  A = i; B = 3; C = -2; D = -2.5; E = 0.8

O=C(O)c1ccc(CNC(=O)C2CCN(S(=O)(=O)c3ccc4c(c3)OCCO4)CC2)cc1
  A = i; B = 9; C = -1; D = 3.6; E = 0.9

CNC[C@H]1Oc2ccc(NC(=O)C3CCCCC3)cc2C(=O)N([C@H](C)CO)C[C@H]1C
  A = i; B = 3; C = -9; D = -5.3; E = -3.7

O=C1c2ccccc2C(c2nnnn2Cc2ccccc2)N1CCc1c[nH]c2ccccc12 (centres undefined)
  A = i; B = -35; C = -33; D = -5.0; E = 3.2

CC(C)C1C(=O)N(Cc2cn(Cc3ccco3)nn2)CCS(=O)(=O)N1Cc1ccc(-c2ccncc2)cc1 (centres undefined)
  A = i; B = -2; C = 4; D = -2.3; E = -2.1

CO[C@@H]1CC[C@@H]2CCOc3c(C#N)cccc3C(=O)N(C)[C@H](C)C(=O)N(C)C[C@@H]1O2
  A = i; B = 2; C = 4; D = -1.7; E = -16

CCCNC(=O)C1(C)CCCN(Cc2cc3ccccc3o2)C1 (centres undefined)
  A = i; B = -13; C = -23; D = -2.0; E = 1.9

COc1ccc(CN(C)C[C@@H]2OCCCC[C@@H](C)Oc3ccc(NC(=O)Nc4ccc(C(F)(F)F)cc4)cc3C(=O)N([C@@H](C)CO)C[C@@H]2C)cc1
  A = i; B = -1; C = 8; D = 2.8; E = 5.3

CN(C)C(CNC(=O)c1cc2ccccc2o1)c1ccccc1 (centres undefined)
  A = i; B = 20; C = 18; D = 2.8; E = 1.5

O=C(CCN1CCCCC1)NCC[C@H]1CC[C@@H](NS(=O)(=O)c2cccc(F)c2)[C@H](CO)O1
  A = i; B = -1; C = 9; D = -2.1; E = 0.2

O=C(NCc1ccncc1)[C@@H]1CCCN1C(=O)[C@H]1CCCN1C(=O)c1cccc2ccccc12
  A = i; B = 11; C = 8; D = 0.8; E = 2.4

O=C(NCc1ccc(F)cc1)c1cc(C2CCCCN2C(=O)c2cccs2)on1 (centres undefined)
  A = i; B = 2; C = -1; D = 9.3; E = -0.6

C[C@H](CO)N1C[C@H](C)[C@H](CN(C)S(=O)(=O)c2cn(C)cn2)Oc2ccc(NS(=O)(=O)c3ccccc3)cc2C1=O
  A = i; B = 5; C = 8; D = 0.7; E = -3.2

CCC(=O)Nc1ccc2c(c1)C(=O)N(C)[C@@H]1CC[C@@H](CC(=O)N3CCc4ccccc4C3)O[C@@H]1CO2
  A = i; B = 1; C = 5; D = -0.8; E = -0.5
